Source: PubChem BioAssay (ICCB-Longwood Screening Facility, Harvard Medical School)
CapD inh – Bacillus anthracis CapD inhibitors, primary screen, biochemical, fluorescence intensity; purified CapD enzyme, fluorescence intensity read-out; active compounds read low; some hits fall short of the stated cut; 0.23% of 140,000 active; z-score (no concentration beside the values); CapD gamma-glutamyltranspeptidase (Bacillus anthracis Ames Ancestor);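 active = z-score under -4 in either of two replicates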;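 note: stock transfer was 100 nL into about 40 µL; score is relative to mean and spread of the plate; one replicate is shown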
AID504770 – growth inhibition of E. coli YBA685, primary screen, V. cholerae RctB inhibitors; E. coli YBA685 rctB-dependent plasmid, OD600 growth, 3 h; active compounds read low; z-score (test concentration not listed); 0.27% of 130,000 active; AID 504770, 2011;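 active = z-score under -2 on both plates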;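 note: wells of about 30 µL received 100 nL stock; score is relative to mean and SD of the test wells; the first replicate is given; strong numbers were not always called active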
Numbers without * were called inactive; i = inactive; nt = not tested or not shown. Some of the compounds tested, so the mix of outcomes need not match the whole.

Second line of a record: AID504770, CapD inh
OCC#CCSc1nc2ccccc2o1
 : 0.95, nt
CCCn1c2ccccc2c2nc3ccccc3nc21
 : -0.8, -0.01
CCSc1nc2ccc(NC(=O)c3ccccc3C(=O)O)cc2s1
 : 0.85, -0.99
CCOC(=O)c1sc2nc(C)nc(NCc3ccccc3OC)c2c1C
 : nt, 20
O=C(COC(=O)C1(c2ccc(F)cc2)CCCC1)NC1CC1
 : 0.25, nt
c1ccc(-c2noc(CC3CCCCC3)n2)cc1
 : 2.6, -0.68
Cc1cc(NC(=O)CSc2nnc(Cn3c(=O)sc4ccccc43)n2-c2ccccc2)no1
 : 2.1, nt
Cc1cc(C)cc(Oc2c(C(F)(F)F)oc3c(CN4CC(C)OC(C)C4)c(O)ccc3c2=O)c1 (stereo not given)
 : 1.8, 0.015
CCc1nnc(NC(=O)CSc2nc3c(c(=O)n2Cc2ccccc2)SC(C)C3)s1 (stereo not given)
 : -0.25, nt
COc1ccc(C2C(C#N)=C(N)Oc3n[nH]c(-c4ccc5c(c4)OCO5)c32)c(OC)c1 (stereo not given)
 : nt, 0.2
O=C(NCc1cccs1)c1cc2c(=O)[nH]c3ccccc3c2s1
 : -0.1, 0.59
Cc1cccc(N2C(=O)CSC2c2cc3c(cc2Br)OCO3)c1 (stereo not given)
 : nt, -0.23
O=C1CCCCC1CCS(=O)(=O)c1ccc(Cl)cc1 (stereo not given)
 : nt, -0.12
O=C1C=CC(=O)N1c1ccc2scnc2c1
 : -0.95, -0.48
Nc1ccc(-c2nc3ccccc3[nH]2)cc1
 : -1.3, 47
CSc1nc(N)c(C#N)n1Cc1ccco1
 : nt, 0.66
CCc1ccc2oc(C(=O)Nc3ccccc3OC)c(C)c2c1
 : -0.35, 2.4
CC(C)C(NC(=O)C1CCCCC1)C(=O)Nc1ccc(F)c(Cl)c1 (stereo not given)
 : 0, -0.01
CCCCC1(C)Cc2ccccc2C(=O)N1 (stereo not given)
 : -0.4, i
COc1cc(OC)cc(C2SC(N)=C(C#N)C(N)=C2C#N)c1 (stereo not given)
 : 0.05, -0.59

Other compounds.
Second line of a record: AID504770, CapD inh
Cc1oc2ccc(O)c(CN3CCN(Cc4ccccc4)CC3)c2c1C(=O)Nc1ccc(C(C)C)cc1
 : 0.2, 1.1
Cc1ccc(S(=O)(=O)Cc2ccc(C(=O)N3CCC4(CC3)OCCO4)o2)cc1
 : 1.8, 0.015
O=C(Nc1ccc(-c2nc3ccccc3o2)cc1)C1CCCC1
 : -0.75, 26
Cc1ccc(N2C(=O)/C(=C/c3cc(Br)ccc3O)C(=O)NC2=S)cc1C
 : nt, -0.5
O=C1CN(C(=O)COC(=O)c2ccccc2)c2ccccc2N1
 : 0.75, nt
COc1cccc(C2C3=C(CCCC3=O)N(C)C3=C2C(=O)CCC3)c1
 : -0.45, nt
O=C(Nc1nnc(CCS(=O)(=O)c2ccc3ccccc3c2)s1)c1ccc(Cl)cc1
 : nt, -0.49
CCn1c(=O)n(CC)c2cc(N3CCCC3)c(NC(=O)CC(=O)OC)cc21
 : 0.2, -0.045
Nc1ccccc1-c1nnc(-c2ccc(-c3ccccc3)cc2)o1
 : 2.6, 1.6
CC1(C)CC(C(CC#N)c2ccccc2)CCO1 (stereo not given)
 : -0.35, nt
CC(C#N)Sc1nnc(-c2ccco2)n1Cc1ccccc1 (stereo not given)
 : -0.65, nt
COc1ccc(-c2cc(-c3cccs3)n(-c3nc(C)cc(=O)[nH]3)n2)cc1
 : 0.6, nt
CCN(CC)C(=O)c1ccc(COc2cccc3ccccc23)o1
 : 0.2, 1.8
CCN(C(=O)CN1CC=C(c2ccccc2)CC1)C1CCS(=O)(=O)C1 (stereo not given)
 : -0.35, nt
Cc1nc2nc(CCc3ccccc3)nn2c(C)c1Cl
 : 1.3, 0.025
CC(C)(C)Nc1nc2nonc2nc1NC(C)(C)C
 : -0.6, 0.01
OCc1cnc(SCc2ccccc2)n1Cc1ccccc1
 : 0.65, 0.3
COc1ccc(C2Nc3ccccc3C(=O)N2c2ccc(Cl)cc2)cc1Cn1nnc2ccccc21 (stereo not given)
 : nt, 37
CN(C)c1ccc(C2N3CC4(C)CN2CC(C)(C3)C4=O)cc1 (stereo not given)
 : nt, 0.02
CCCc1cc(SCC(=O)O)n2c(nc3ccccc32)c1C#N
 : 2.1, nt

Single values from above.
`Nc1ccccc1-c1nnc(-c2ccc(-c3ccccc3)cc2)o1` in AID504770 has 2.6
`OCc1cnc(SCc2ccccc2)n1Cc1ccccc1` in AID504770 has 0.65
`CCN(C(=O)CN1CC=C(c2ccccc2)CC1)C1CCS(=O)(=O)C1` (stereo not given) in AID504770 has -0.35
`Cc1ccc(N2C(=O)/C(=C/c3cc(Br)ccc3O)C(=O)NC2=S)cc1C` in CapD inh has -0.5

Remaining list, next part:
Second line of a record: AID504770, CapD inh
CC(C)(C)NS(=O)(=O)CC12CCC(CC1=O)C2(C)C (stereo not given)
 : 0.05, nt
CCN(CC(=O)NCc1cccs1)Cc1cc(=O)oc2cc(O)ccc12
 : 0, nt
COCCn1c(=O)[nH]c2cc(C(=O)O)ccc2c1=O
 : 0.05, 4
N#Cc1cn(-c2ccc(Cl)cc2)nc1C(=O)c1cccs1
 : 0.7, 1.2
Cn1c(=O)cc(N2CCCCC2)c2c(=O)n(-c3ccccc3)c(=O)n(-c3ccccc3)c21
 : 0.25, 0.58
CCOC(=O)c1sc2sc(C(=O)OCC)c(CN(CC)CC)c2c1CN(CC)CC
 : 0.35, nt
FC(F)(F)c1cccc(Oc2cnc3ccccc3n2)c1
 : 1.3, -0.47
CC/C(=N\NC(=O)C1CC1)c1cccc(Cl)c1
 : 0.3, nt
CCC1(C)COC2(OC1)C(=O)N(CN1CCOCC1)c1ccccc12 (stereo not given)
 : nt, -0.06
CC(=O)Nc1ccc(C(=O)N(C)Cc2cccc(F)c2)cc1
 : 1.3, nt
Fc1ccccc1OCc1n[nH]c(=S)n1-c1ccccc1
 : -0.65, nt
O=C1C2C3C=CC(C3)C2C(=O)N1CCc1ccccc1 (stereo not given)
 : 0.05, -0.29
Oc1ccc(-c2csnn2)cc1
 : 0.2, -0.06
COc1ccc(C(=O)Nc2ccc(N3CCN(C(=O)OC(C)(C)C)CC3)nc2)cc1
 : 1.1, -0.005
CC(C)C(=O)C1=Cc2cccc([N+](=O)[O-])c2OC1N1CCOCC1 (stereo not given)
 : nt, 0.015
CC(C)c1ccc(N(C)S(=O)(=O)c2ccc3[nH]cc(C(=O)NCCN4CCOCC4)c(=O)c3c2)cc1
 : nt, 0.22
CCCCOCC1CC(CC#CCN2CCCCC2)C(=O)O1 (stereo not given)
 : -0.1, -0.02
COC(=O)c1ccccc1NC(=O)c1sc2nc(C)nc(N3CCN(c4ccccn4)CC3)c2c1C
 : nt, -1
Nc1cccc2c1C(=O)c1ccccc1-2
 : nt, -1.8
Cc1ccc(C2CC(=O)Nc3cc(C)c(C)cc32)cc1 (stereo not given)
 : nt, 0.06

Two entries from above, with tabs:
Compound	AID504770	CapD inh
Fc1ccccc1OCc1n[nH]c(=S)n1-c1ccccc1	-0.65	nt
O=C1C2C3C=CC(C3)C2C(=O)N1CCc1ccccc1 (stereo not given)	0.05	-0.29

A portion of the results above:
Second line of a record: AID504770, CapD inh
OCC#CCSc1nc2ccccc2o1
 : 0.95, nt
CCCn1c2ccccc2c2nc3ccccc3nc21
 : -0.8, -0.01
CCSc1nc2ccc(NC(=O)c3ccccc3C(=O)O)cc2s1
 : 0.85, -0.99

(next part)
Second line of a record: AID504770, CapD inh
CCOC(=O)/C=C(/C)Nc1nonc1NC(C)=O
 : -0.15, 0.17
COC(=O)c1sc(-c2cccs2)cc1N
 : nt, 5.1
CCN(N)c1nc(Cl)cc(C)c1C#N
 : -0.3, -1.4
CCCS(=O)(=O)c1c(S(=O)(=O)CCC)c2c3ccccc3ccn2c1C(=O)c1ccccc1
 : nt, -0.46
O=c1oc2ccccc2cc1-c1ccc([N+](=O)[O-])cc1
 : nt, 0.04
O=C(C1CC1)n1nccc1-c1csc(-c2ccccc2)n1
 : 1.1, -0.035
O=C(NCCc1cccs1)C1CCN(Cc2cnn(-c3ccccc3)c2-n2cccc2)CC1
 : -2, -0.02
NC(=O)C(Cc1ccc(O)cc1)NC(=O)CNC(=O)CNC(=O)c1ccc([N+](=O)[O-])cc1 (stereo not given)
 : nt, -0.27
Cc1cc(O)c(C(c2ccncc2)N2CCCCC2)c(=O)n1Cc1ccco1 (stereo not given)
 : -1.1, nt
O=C1C(c2ccccc2)C(c2ccco2)NC(c2ccco2)C1c1ccccc1 (stereo not given)
 : -0.55, 0.16
CCOC(=O)c1c(-c2ccccc2)oc2ccc(OCC)cc12
 : 1.4, 38
Cc1nc2sccn2c(=O)c1S(=O)(=O)NCCC(C)C
 : -0.05, 29
O=[N+]([O-])c1cc(S(=O)(=O)Oc2ccccc2)cc2c1-c1c(cc(S(=O)(=O)Oc3ccccc3)cc1[N+](=O)[O-])C2=NO
 : nt, 0.52
CC1(C)CC(=O)C2=C(C1)OC(N)=C(C#N)C2C#Cc1ccccc1 (stereo not given)
 : -0.55, nt
COc1ccccc1N1CCN(S(=O)(=O)c2cc(C(=O)Nc3ccc(C(C)C)cc3)ccc2F)CC1
 : nt, -0.58
O=C(/C=C/c1ccccc1)N1CCCCC1
 : -0.5, -0.085
CCCCN1C(C)=NC(C(F)(F)F)(C(F)(F)F)C2=C1CC(C)(C)CC2=O
 : 0.95, 0.12
COC(=O)c1cc(NC(=O)c2ccc3c(c2)OCCO3)cc(C(=O)OC)c1
 : nt, -0.27
O=C(OCCSc1ccccn1)c1cccc(Cl)c1
 : nt, 0.39
Cc1ccc2[nH]c(=O)c(CN(C3CCCCC3)S(=O)(=O)c3ccccc3)cc2c1
 : -0.15, -0.91

Additional compounds.
Second line of a record: AID504770, CapD inh
CN(CCc1ccccn1)C(=O)c1cccc(C(F)(F)F)c1
 : -0.05, nt
C/C(=N/O)c1ccn(S(=O)(=O)c2ccccc2)c1
 : nt, 0.29
O=C(COC(=O)CC1Sc2ccccc2NC1=O)NC1CC1 (stereo not given)
 : -0.35, nt
CNC(=O)Oc1ccccc1OCC(=O)NCc1ccccc1Cl
 : 0.2, 0.55
COc1ccc2c(c1)c1c3n2CCNC3CCC1 (stereo not given)
 : -0.4, 3.1
CSc1ccc(S(=O)(=O)N2CCCCC2)cc1
 : 0.4, 0.28
COC(=O)N1c2ccccc2C=Cc2ccccc21
 : nt, -0.58
COc1ccccc1-n1nc(C(=O)Nc2cnc3ccccc3c2)c2ccccc2c1=O
 : nt, -0.63
CCSC1=C(C#N)C(c2ccccc2)C(C(=O)Nc2ccccc2)=C(C)N1 (stereo not given)
 : -0.65, 2.2
Cc1nc2cc(NC(=O)c3ccc(S(=O)(=O)N(C)Cc4ccccc4)cc3)ccc2s1
 : 0.5, 1.4
Cc1ccc(C(=O)CNc2ccccc2)cc1
 : -1.6, nt
Cc1cc(C)c(S)c(C)c1
 : -0.3, nt
CCn1nc(C)cc1-c1nnc(-c2ccc(C(F)(F)F)cc2)o1
 : -0.1, -0.33
N#Cc1c(C(F)(F)F)cc(-c2cccs2)nc1SCC(=O)N1CCCCC1
 : nt, 32
CCOC(=O)C1=C(NC(=S)NC(=O)c2ccccc2)c2ccccc2CC12CCCCC2
 : nt, -0.21
CN1CCCN(C(=O)C2CCN(S(=O)(=O)c3cccs3)CC2)c2nc3ccccc3nc21
 : -0.1, nt
N=C1C(c2ccccc2)=C(O)CN1c1ccccc1
 : -0.3, 0.62
CC(=O)OCC(=O)Nc1cc(Cl)cc(Cl)c1
 : -1.2, -0.07
COc1ccccc1N/C=C(\C#N)c1ccc(Cl)cc1
 : -0.35, -0.9
CCc1cccc(-n2nnc(-c3nsc(NC(=O)c4ccccc4)n3)c2C)c1
 : 0.2, 0.14

Further entries
Second line of a record: AID504770, CapD inh
CN=C1S/C(=C/c2cccn2-c2ccc(N(C)C)cc2)C(=O)N1C
 : -0.6, 0.18
N#Cc1ccsc1NC(=O)c1cccnc1N1CCCC1
 : 1.6, nt
CCCCCCCn1c(SC(C)C)nc2c1c(=O)[nH]c(=O)n2C
 : nt, 0.08
O=C(NCc1cccs1)c1cc2c(s1)CS(=O)(=O)C2
 : 0.45, -0.2
COc1ccc(C2=NN(C(=O)CSc3nnc(CNC(=O)c4ccccc4F)n3C)C(c3ccc(F)cc3)C2)cc1 (stereo not given)
 : nt, -0.57
CC(C)Cn1c(CCNC(=O)C(C)(C)C)nc2ccccc21
 : -0.85, -0.73
CC(C)(c1ccccc1)n1nnc(-c2ccccc2)n1
 : -0.2, -0.67
CC1(C)C2CC=C(/C=N/N3C(=O)NC4(CCCCC4)C3=O)C1C2 (stereo not given)
 : -0.45, nt
Cc1ccc2cc(CN(C(=O)c3cccc(Cl)c3)C(C)C)c(=O)[nH]c2c1
 : 0.15, 25
CCCSc1nnc(C)c(/C=C/Nc2cccc(C(F)(F)F)c2)n1
 : nt, -0.47
CN(C)c1nc(Nc2ccc(OC(F)(F)F)cc2)nc(NC(C)(C)C)n1
 : 1.2, -0.57
CC(=O)Nc1ccc(S(=O)(=O)N2CCC(N(C)C(C)C)CC2)cc1
 : -0.5, nt
CC(C)N(CCO)S(=O)(=O)c1ccc(N)cc1
 : 0.1, 0.09
O=C(NC1CCSc2ccccc21)c1ccccc1 (stereo not given)
 : 0.25, nt
Cc1ccc(C)c2[nH]c(=O)c(CCNC(=O)c3cccs3)cc12
 : -1, 2.7
Cn1c(=O)c2c(-c3ccccc3)n(C(CO)(CO)CO)cc2n(C)c1=O
 : 1.6, -0.1
CSC(=CC(=O)c1sc(-c2cccs2)nc1C)SC
 : 1.5, 1.1
CCn1c(SC)nnc1C1CCCN1CC(=O)N1CCN(Cc2ccc3c(c2)OCO3)CC1 (stereo not given)
 : -0.75, nt
Cc1ccccc1CN1C(=O)C(O)(CC(=O)c2ccccc2O)c2ccccc21 (stereo not given)
 : -0.35, -0.09
O=C(NC1=NCCS1)Nc1ccc2snnc2c1
 : -0.95, 15
O=C(Nc1ccccc1)Nc1ccc(Nc2ccccc2)cc1
 : 1.4, 2.4
